NOMO-1 viab = STK33 inhibitor candidate reducing NOMO-1 cell viability; NOMO-1 AML viability, CellTiter-Glo luminescence, 72 h; inhibition, % (no concentration beside the values); actives 7.5% (n = 37,000); AID 2330;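 active = most replicates above 80%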;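 note: wells of about 30 µL received 25 nL stock; 0% = median of vehicle wells and 100% = reference inhibitor level; the first replicate is given; inactives centre near 10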
An asterisk follows results filed as active.

SMILES	NOMO-1 viab
COc1cc(-c2c(C)cc(O)cc2O[C@@H]2O[C@H](CO)[C@@H](O)[C@H](O)[C@H]2O)oc(=O)c1	-1.6
COc1ccc(CCNC(=O)c2cc(-c3cccnc3)nc3c(Cl)cccc23)cc1OC	3.9
COc1ccc(NC(=O)Nc2ccc3c(c2)C(=O)N([C@@H](C)CO)C[C@@H](C)[C@H](CN(C)C(=O)Nc2ccc(C(F)(F)F)cc2)O3)cc1	22.4
CC1CCC(C(C)C)C(NC(=O)c2cccc3ccccc23)C1 (configuration not stated)	81.8*
COC(=O)c1ccccc1NC(=O)COc1ccc(I)cc1	-3.7
O=C(CSC1CC(=O)N(c2ccc(F)cc2)C1=O)Nc1ccc(Br)cc1 (configuration not stated)	2.6
Cc1cc(=O)[nH]c(SCCCOc2cccc(Br)c2)n1	-5.7
COc1ccc(NC(=O)Nc2ccc3c(c2)C(=O)N([C@H](C)CO)C[C@H](C)[C@@H](CN(C)C(=O)Nc2ccc4c(c2)OCO4)O3)cc1	14.3
C[C@@H]1CN([C@H](C)CO)C(=O)c2cc(NC(=O)CCN3CCOCC3)ccc2O[C@H]1CN(C)Cc1ccc2c(c1)OCO2	-4.5
C[C@@H]1CN([C@H](C)CO)C(=O)c2cccc(NS(=O)(=O)c3ccccc3)c2O[C@H]1CN(C)S(=O)(=O)c1ccccc1	13.9
Cc1ccc(N(CC(=O)O)S(C)(=O)=O)cc1C	2.3
COc1ccc(NC(=O)N(C)C[C@@H]2Oc3c(cccc3N(C)C)C(=O)N([C@@H](C)CO)C[C@@H]2C)cc1	0.5
C[C@@H]1CN([C@@H](C)CO)C(=O)c2cccc(N(C)C)c2O[C@H]1CN(C)S(=O)(=O)c1ccc(Cl)cc1	36.9
Fc1ccc(C=Nc2ccc3ccccc3c2)cc1	17.3
O=C(COc1ccccc1)Nc1ccc2oc(-c3ccc(Cl)cc3Cl)nc2c1	12.4
COc1ccc(CN(C)C[C@H]2Oc3ccc(NS(=O)(=O)c4ccccc4)cc3CC(=O)N([C@H](C)CO)C[C@H]2C)cc1	-6.3
CC(C)NC(=O)N(C)C[C@H]1Oc2ccc(NC(=O)CCCN(C)C)cc2CC(=O)N([C@@H](C)CO)C[C@@H]1C	10.7
COc1ccc(NC(=O)Nc2ccc3c(c2)CC(=O)N([C@@H](C)CO)C[C@@H](C)[C@@H](CN(C)C(=O)NC(C)C)O3)cc1	14.9
COc1ccc(S(=O)(=O)N(C)C[C@@H]2Oc3ccc(NS(=O)(=O)c4cccs4)cc3C(=O)N([C@@H](C)CO)C[C@H]2C)cc1	4.5
COc1ccc(NC(=O)N(C)C[C@H]2Oc3ccc(NC(=O)C4CC4)cc3C(=O)N([C@@H](C)CO)C[C@@H]2C)cc1	-5.2
Cc1ccc(S(=O)(=O)Nc2ccc3c(c2)C(=O)N([C@H](C)CO)C[C@H](C)[C@H](CN(C)Cc2ccc(-c4ccccc4)cc2)O3)cc1	46.8
Cc1noc(C)c1NC(=O)Nc1ccc2c(c1)CC(=O)N([C@H](C)CO)C[C@H](C)[C@H](CN(C)Cc1ccc(C(F)(F)F)cc1)O2	24.6
C[C@H]1CN([C@@H](C)CO)C(=O)c2cccc(NC(=O)NC3CCCCC3)c2O[C@H]1CN(C)Cc1ccc(C(F)(F)F)cc1	7.6
C[C@@H]1CCCCO[C@@H](CN(C)S(C)(=O)=O)[C@@H](C)CN([C@H](C)CO)C(=O)c2cc(NC(=O)C3CCCCC3)ccc2O1	20.0
C[C@@H]1CCCCO[C@H](CN(C)Cc2ccc3c(c2)OCO3)[C@@H](C)CN([C@H](C)CO)C(=O)c2cc(NC(=O)Nc3ccc(C(F)(F)F)cc3)ccc2O1	84.4*
C[C@H](CO)N1C[C@H](C)[C@H](CN(C)C(=O)NC2CCCCC2)Oc2ccc(NS(=O)(=O)c3cccs3)cc2CC1=O	-0.4
O=C(NCc1ccco1)c1cc2cc(Br)ccc2oc1=O	-8.7
C[C@H](CO)N1C[C@H](C)[C@H](CN(C)C)Oc2ccc(NC(=O)Nc3ccc(C(F)(F)F)cc3)cc2CC1=O	41.4
C[C@@H]1CN([C@H](C)CO)C(=O)c2cccc(NS(=O)(=O)c3ccc(F)cc3)c2O[C@@H]1CN(C)CC1CC1	7.5
Cc1nnc(SCC(=O)n2c3c(c4ccccc42)CC(C)CC3)s1 (configuration not stated)	22.0
COc1ccc(S(=O)(=O)N(C)C[C@H]2Oc3ccc(NS(=O)(=O)c4ccc(Cl)cc4)cc3CC(=O)N([C@H](C)CO)C[C@H]2C)cc1	34.5
Cc1cc(C)c(C(=O)Nc2ccc(S(=O)(=O)Nc3cc(C)nc(C)n3)cc2)c(C)c1	-11.0
N#CC(=C1SCCCS1)S(=O)(=O)c1cccs1	23.0
C=CCn1c(SCC(N)=O)nnc1-c1ccc(Br)cc1	6.9
COc1ccc(NC(=O)Nc2cccc3c2O[C@@H](CN(C)C)[C@@H](C)CN([C@H](C)CO)C3=O)cc1	-9.9
COc1ccc(NC(=O)N(C)C[C@H]2Oc3c(NS(=O)(=O)c4ccc(OC)cc4)cccc3C(=O)N([C@@H](C)CO)C[C@@H]2C)cc1	-2.9
O=c1c2ccccc2c(C=Nc2cccc(C(F)(F)F)c2)c(O)n1-c1ccccc1	106.5*
C[C@@H]1CN([C@@H](C)CO)C(=O)c2cc(NC(=O)Nc3cccc4ccccc34)ccc2O[C@H]1CN(C)S(C)(=O)=O	0.5
CCCCC/C=C/C(=O)CCc1ccc(O)c(OC)c1	118.0*
C/C=C(\C)C(=O)OC(C)(C)C1Cc2cc3ccc(=O)oc3cc2O1 (configuration not stated)	19.3
COc1ccc(/C=C2/C(=O)C(C(C)C)=CCC2C)cc1 (configuration not stated)	10.1
CC(C)NC(=O)Nc1ccc2c(c1)CC(=O)N([C@@H](C)CO)C[C@H](C)[C@H](CN(C)C)O2	22.8
CSc1ccccc1NC(=O)CN(c1ccc(Cl)cc1)S(C)(=O)=O	4.6
C[C@H](CO)N1C[C@H](C)[C@@H](CN(C)C(=O)NC2CCCCC2)Oc2ccc(NC(=O)Nc3ccc4c(c3)OCO4)cc2C1=O	-0.7
Cc1cc(C(=O)Nc2cccc3c2O[C@H](CN(C)Cc2ccc(Cl)c(Cl)c2)[C@H](C)CN([C@@H](C)CO)C3=O)n(C)n1	10.6
NC(=O)C1CCN(C(=O)CSc2nc3ccccc3[nH]2)CC1	-9.3
COc1cccc(NC(=O)Cn2cc(C(=O)C(C)(C)C)c3ccccc32)c1	16.5
Cc1noc(C)c1NC(=O)Nc1cccc2c1O[C@@H](CN(C)C(=O)Nc1ccccc1)[C@@H](C)CN([C@@H](C)CO)C2=O	19.0
CC(C)(C)C1CCc2c(sc(NC(=O)CSc3nnnn3-c3ccccc3)c2C#N)C1 (configuration not stated)	11.9
COc1ccccc1CC(=O)Nc1ccc(-c2nnc(-c3ccccc3)o2)cc1	34.9
Cc1cc(C)nc(N(C#N)C(C(=O)c2ccccc2)c2ccccc2)n1 (configuration not stated)	110.2*
Cn1c(SCC(=O)Nc2cccc(Br)c2)nnc1-c1cc2ccccc2o1	1.3
CN(CC(=O)Nc1ccc(C(=O)O)cc1)S(=O)(=O)c1ccccc1	-14.0
COc1ccc(C(=O)CC2(O)C(=O)N(Cc3ccc(Cl)c(Cl)c3)c3ccccc32)cc1OC (configuration not stated)	43.4
CC1(C)Cc2c(sc3nc(SCC(=O)O)[nH]c(=O)c23)CO1	13.6
Cn1c(SCC(=O)c2cccc([N+](=O)[O-])c2)nnc1-c1ccco1	0.5
C[C@H](CO)N1C[C@H](C)[C@H](CN(C)Cc2ccc(C(=O)Nc3ccccc3N)cc2)Oc2ccc(NC(=O)Nc3ccc(C(F)(F)F)cc3)cc2CC1=O	139.8*
C[C@H](CO)N1C[C@H](C)[C@H](CN(C)C(=O)Nc2ccc(C(F)(F)F)cc2)Oc2ccc(NC(=O)Nc3ccc(F)cc3)cc2CC1=O	27.3
Cc1c(Cl)cccc1NC(=O)CNC(=O)c1ccco1	22.9
O=c1[nH]c(NCCCO)nc2c1C1(CCCC1)Cc1ccccc1-2	-19.4

The listing continues.
SMILES	NOMO-1 viab
C[C@H]1CN([C@@H](C)CO)C(=O)Cc2cc(NS(=O)(=O)c3cccs3)ccc2O[C@H]1CN(C)C	-21.5
COc1ccc(S(=O)(=O)Nc2ccc3c(c2)C(=O)N([C@H](C)CO)C[C@H](C)[C@@H](CN(C)Cc2ccncc2)OCCCC[C@@H](C)O3)cc1	20.3
Cc1ccc(CCC(=O)Nc2cc(Cl)ccc2Cl)o1	29.6
C[C@H](CO)N1C[C@H](C)[C@@H](CN(C)C(=O)NC2CCCCC2)Oc2ccc(NC(=O)Nc3ccc(F)cc3)cc2C1=O	4.0
CCOc1ccc(C(=O)CSc2nnc(-c3ccncc3)n2-c2ccc(C)cc2)cc1	-13.2
CCOc1ccc(NC(=O)C(C)n2nc([N+](=O)[O-])c(Br)c2C)cc1 (configuration not stated)	21.4
C[C@@H]1CN([C@@H](C)CO)C(=O)c2cc(NC(=O)c3ccncc3)ccc2O[C@@H]1CN(C)C(=O)Nc1ccc(F)cc1	4.9
C[C@@H]1CN([C@H](C)CO)C(=O)c2cccc(NC(=O)Nc3ccccc3)c2O[C@@H]1CN(C)Cc1ccccc1	-2.3
Cc1ccc(S(=O)(=O)N(C)C[C@H]2Oc3c(NC(=O)c4ccncc4)cccc3C(=O)N([C@@H](C)CO)C[C@H]2C)cc1	-3.5
COc1ccc(CN(C)C[C@@H]2Oc3ccc(NC(=O)Nc4c(C)noc4C)cc3CC(=O)N([C@@H](C)CO)C[C@@H]2C)cc1	37.8
CS(=O)(=O)N(CC(=O)Nc1ccc(C(F)(F)F)cc1)c1cccc(C(F)(F)F)c1	67.3
C[C@@H]1CCCCO[C@H](CN(C)S(=O)(=O)c2cccs2)[C@@H](C)CN([C@H](C)CO)C(=O)c2cc(NS(=O)(=O)c3cccs3)ccc2O1	19.9

Among those listed so far, three have a COOH group.
SMILES	NOMO-1 viab
Cc1ccc(N(CC(=O)O)S(C)(=O)=O)cc1C	2.3
CN(CC(=O)Nc1ccc(C(=O)O)cc1)S(=O)(=O)c1ccccc1	-14.0
CC1(C)Cc2c(sc3nc(SCC(=O)O)[nH]c(=O)c23)CO1	13.6

(continued)
SMILES	NOMO-1 viab
C[C@@H]1CN([C@H](C)CO)C(=O)c2cc(NC(=O)CCCCCC(=O)Nc3ccccc3N)ccc2O[C@@H]1CN(C)C(=O)Nc1ccccc1	-14.3
C[C@@H]1CN([C@@H](C)CO)C(=O)c2cccc(NC(=O)c3ccc(-c4nccs4)cc3)c2O[C@H]1CN(C)Cc1ccc(Oc2ccccc2)cc1	111.3*
C[C@@H]1CN([C@@H](C)CO)C(=O)c2cccc(NS(=O)(=O)c3ccc(Cl)cc3)c2O[C@H]1CN(C)C(=O)NC1CCCCC1	26.0
Clc1cccc(Cl)c1-c1cc(-c2ccccn2)on1	35.6
CCn1c(SCC(=O)Nc2cccc(SC)c2)nnc1-c1cc2cc(Br)ccc2o1	19.4
O=C(O)c1cccc(COc2ccc(CO)cc2Cl)c1	30.2
C[C@@H]1CN([C@@H](C)CO)C(=O)c2cc(NS(=O)(=O)c3ccccc3)ccc2O[C@H]1CN(C)CC1CC1	-13.4
Cc1noc(C)c1NC(=O)N(C)C[C@H]1Oc2c(NC(=O)C3CCCCC3)cccc2C(=O)N([C@@H](C)CO)C[C@H]1C	2.1
C[C@@H]1CCCCO[C@H](CN(C)C(=O)Nc2ccccc2)[C@@H](C)CN([C@H](C)CO)C(=O)c2cc(NC(=O)Nc3cccc4ccccc34)ccc2O1	-15.4
C[C@H]1CN([C@@H](C)CO)C(=O)c2cc(NS(=O)(=O)c3cn(C)cn3)ccc2O[C@H]1CN(C)S(=O)(=O)c1ccccc1	17.1
C[C@H]1CN([C@@H](C)CO)C(=O)Cc2cc(NS(C)(=O)=O)ccc2O[C@H]1CN(C)S(C)(=O)=O	-4.0
COc1ccc(NC(=O)Nc2cccc3c2O[C@H](CN(C)S(=O)(=O)c2cccs2)[C@@H](C)CN([C@H](C)CO)C3=O)cc1	4.0
Cc1ccc(-c2nnc(SCC(=O)Nc3ccc(Br)cc3C(C)C)o2)cc1	16.5
CC(C)NC(=O)Nc1ccc2c(c1)CC(=O)N([C@H](C)CO)C[C@H](C)[C@H](CN(C)CC1CC1)O2	-3.7
CCOc1ccc(NC(=O)CSc2n[nH]c(-c3ccc(Cl)cc3)n2)cc1	-3.7
O=C(CN1C(=O)c2ccccc2C1=O)Oc1ccc(C(=O)Nc2ccccc2)cc1	6.8
C[C@H]1CN([C@@H](C)CO)C(=O)Cc2cc(N(C)C)ccc2O[C@@H]1CN(C)S(=O)(=O)c1ccc(Cl)cc1	8.7
COc1cccc(C2CC(=O)NC(SCC(=O)Nc3ccccc3Cl)=C2C#N)c1OC (configuration not stated)	-8.0
CC(C)c1cnc(NC(=O)Cc2ccccc2)s1	53.1

Looked up by compound from above:
SMILES	NOMO-1 viab
Cc1ccc(-c2nnc(SCC(=O)Nc3ccc(Br)cc3C(C)C)o2)cc1	16.5
C[C@H]1CN([C@@H](C)CO)C(=O)Cc2cc(N(C)C)ccc2O[C@@H]1CN(C)S(=O)(=O)c1ccc(Cl)cc1	8.7
O=C(CN1C(=O)c2ccccc2C1=O)Oc1ccc(C(=O)Nc2ccccc2)cc1	6.8
CCOc1ccc(NC(=O)CSc2n[nH]c(-c3ccc(Cl)cc3)n2)cc1	-3.7
CC(C)NC(=O)Nc1ccc2c(c1)CC(=O)N([C@H](C)CO)C[C@H](C)[C@H](CN(C)CC1CC1)O2	-3.7
COc1cccc(C2CC(=O)NC(SCC(=O)Nc3ccccc3Cl)=C2C#N)c1OC (configuration not stated)	-8.0

Bioassay records: PubChem BioAssay, Broad Institute

A portion of the library; count on the stated rates, not on these rows.
